Mtb H37Rv: M. tuberculosis H37Rv growth inhibitors, H37Rv strain (AID 1626). hit rate 0.95% among 220,000. inhibition, % at 10 µM, or IC50 in µM where a hit was titrated. M. tuberculosis H37Rv growth inhibition; higher % means a stronger effect;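 active = confirmed in a dose series; inconclusive = inhibition above 80% but not taken into the dose series; inactive = below 80% or under 30% at every dose of the series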;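 also: bacteria incubated seven days before Alamar blue readout; 0% = bacteria only wells and 100% = bacteria with antibiotic wells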
Arbovirus anti: arbovirus infection inhibition; arbovirus infection cell-based antiviral screen; inhibition, % at 10 µM; hit rate 0.37% among 200,000;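 active = inhibition from about 30%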;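 also: bluetongue infection of BSR cells; cell survival read as ATP light after 72 h; 0% = infected wells without compound and 100% = uninfected wells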
Mtb betalactam: beta-lactam sensitization of Mtb H37Rv | inhibition, % at 25 µM | hit rate 0.27% among 330,000 | M. tuberculosis H37Rv growth with meropenem, percent inhibition; hits of this screen are not shown here;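 active = about 74% or more and at least 40 points above the plate without the antibiotic, then above 30% in a dose series; inconclusive = first-round hits that could not be retested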;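 also: growth measured after seven days incubation then overnight dye step; 0% = bacteria only wells and 100% = bacteria with antibiotic; twin plates without the antibiotic show which effects depend on it; some results filed as inactive read as strong as hits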
RecA intein inh: blocks M. tuberculosis RecA intein splicing; P9WHJ3; cell-free RecA intein splicing, fluorescence; inhibition, %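 (about 9 µM by stock and volumes)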; hit rate 0.75% among 290,000; in the data active = inhibition above about 30%; inconclusive = no clear call, values can overlap the other calls;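 also: 0% = vehicle wells and 100% = reference inhibitor control wells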
Target sequence (P9WHJ3 whole entry, looked up): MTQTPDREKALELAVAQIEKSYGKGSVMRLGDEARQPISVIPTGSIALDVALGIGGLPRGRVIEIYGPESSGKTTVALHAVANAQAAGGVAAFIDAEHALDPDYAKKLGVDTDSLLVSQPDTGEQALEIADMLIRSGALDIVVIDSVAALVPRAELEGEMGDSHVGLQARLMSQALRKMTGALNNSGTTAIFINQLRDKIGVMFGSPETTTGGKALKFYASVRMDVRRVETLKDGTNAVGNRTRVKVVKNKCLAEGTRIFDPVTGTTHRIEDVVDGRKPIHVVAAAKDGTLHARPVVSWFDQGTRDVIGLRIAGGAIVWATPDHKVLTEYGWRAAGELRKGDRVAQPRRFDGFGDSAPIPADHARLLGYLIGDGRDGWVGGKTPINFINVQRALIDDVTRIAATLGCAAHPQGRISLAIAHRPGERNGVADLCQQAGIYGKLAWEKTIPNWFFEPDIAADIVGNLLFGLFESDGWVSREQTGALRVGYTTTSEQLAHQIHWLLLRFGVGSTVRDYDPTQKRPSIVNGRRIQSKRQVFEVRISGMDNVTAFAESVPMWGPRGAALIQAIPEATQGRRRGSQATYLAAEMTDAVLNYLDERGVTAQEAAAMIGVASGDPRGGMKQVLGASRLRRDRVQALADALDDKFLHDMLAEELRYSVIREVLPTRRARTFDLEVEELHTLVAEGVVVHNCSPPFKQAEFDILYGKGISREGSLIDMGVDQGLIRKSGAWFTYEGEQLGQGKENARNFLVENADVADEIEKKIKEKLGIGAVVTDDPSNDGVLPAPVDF
YopH PTP inh: YopH (Yersinia) phosphatase inhibition; hit rate 0.16% among 140,000; fluorescence Ex485/Em525; inhibition, %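 (about 10 µM by stock and volumes)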; AID 898;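 active = inhibition of 50% or more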;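 also: controls were vehicle for no effect and minimum signal wells for full effect; inactives centre near -20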
Arbovirus anti repeat: recorded beside Arbovirus anti, whose call it bears; inhibition, %; measured here: 10K subset replicate screen; many hits read low in the repeat;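 first of two repeat runs on a subset; 0% = infected and 100% = uninfected wells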
The depositor's hits bear a star; ? = inconclusive; / = no result given.

SMILES | Mtb H37Rv | Arbovirus anti | Mtb betalactam | RecA intein inh | YopH PTP inh | others
COc1ccc(C2N3CC4(C)CN2CC(C)(C3)C4O)cc1OC (stereo unspecified) | -7% | 0 | -8 | -0.7 | -13
CC(C)COP(=O)(c1ccc(N(C)C)cc1)C(O)c1ccc(N(C)C)cc1 (stereo unspecified) | / | / | -5 | 0.0 | /
Cc1ccc(CN2CC(C(=O)Nc3nnc(SCc4c(Cl)cccc4Cl)s3)CC2=O)cc1 (stereo unspecified) | 4% | -35 | 1 | 2.0 | -26
CCOc1ccc(CCNC(=O)c2cc(-c3ccccc3)c(N3CCOCC3)s2)cc1 | / | / | -6 | 0.3 | /
Cc1ccc(-n2c(C)cc(-c3csc(N)n3)c2C)cc1 | 13% | -2 | 22 | 13 | -6
Brc1ccc2ncnc(NCc3ccccc3)c2c1 | 0% | 24 | 4 | 12 | -18
Cc1ccc(S(=O)(=O)N(CC(=O)Nc2cccnc2)c2ccc(Br)cc2)cc1 | / | / | 12 | 7.0 | /
CC(=O)Cc1nsc(NC(=O)c2ccc(-c3cc(Cl)ccc3Cl)o2)n1 | -1% | -11 | 0 | 1.2 | /
O=C(NNC(=O)c1cccs1)c1ccc(Br)o1 | -4% | 3 | -1 | / | -23
Cc1cc(C)c(NC(=O)CN2C(=O)NC3(CCCCC3)C2=O)c(C)c1 | -9% | -2 | -7 | 2.6 | -31
O=C(COc1ccc(Cl)cc1Cl)Nc1nc2n(n1)C(c1ccccc1)CC(=O)N2 (stereo unspecified) | 2% | -1 | 2 | 0.7 | -42
O=S(=O)(c1ccccc1)N1c2cc(Cl)ccc2Oc2nc3ccccc3nc21 | 12% | 2 | -1 | -5.2 | -10
CCc1ccc(-c2nc(CS(=O)CC(=O)NC3CCCCCC3)c(C)o2)cc1 (stereo unspecified) | / | / | -1 | -6.4 | /
CCOC(=O)N1CCN(Cc2nc(N)nc(Nc3ccc(OC)cc3)n2)CC1 | 0% | -3 | 1 | 0.0 | 11
CCCc1nnc(NC(=O)CCC(=O)O)s1 | -2% | 4 | -6 | -1.8 | -33 | Arbovirus anti repeat=5
COC(=O)Cc1cc(=O)n2[nH]c(C)nc2n1 | -8% | 7 | ? | 1.4 | -48
COc1ccccc1-c1cc(C(=O)NCc2ccco2)no1 | 9% | -2 | -2 | 0.2 | -33
COc1cccc(CNC(=O)CNC(=O)c2cccs2)c1 | / | / | -2 | 0.7 | /
Cc1ncc([N+](=O)[O-])n1Cc1ccccc1 | 3% | 1 | -6 | 1.0 | -27
CCOC(=O)C(Sc1nnc2c3ccccc3n(CC)c2n1)C(=O)OCC | 70% | 3 | 99 | 2.0 | -8
Cc1cccc2sc(NC(=O)CN3C(=O)NC4(CCCC4)C3=O)nc12 | / | / | 6 | -3.4 | /
Cc1cccc(C(=O)Oc2ccccc2C(=O)N2CCOCC2)c1 | -2% | / | 3 | -1.8 | /
COc1cccc(NC(=O)CSc2nc3ccccc3c(=O)n2CCCC(=O)NCCCN2CCOCC2)c1 | 1% | -5 | 9 | -3.3 | /
COc1ccc(NC(=O)CCC2COc3ccccc3O2)c(OC)c1 (stereo unspecified) | 3% | 11 | -5 | 0.7 | -30
O=C(CNC(=S)N(CCCN1CCOCC1)Cc1cccs1)N1CCOCC1 | -2% | -10 | 3 | -1.7 | -11
CCOc1ccc(C(C)=O)cc1CN1C(=O)c2ccccc2S1(=O)=O | / | / | 4 | 0.5 | /
CC1(C)CC(=O)C(C=NCCCN2CCCC2=O)=C(O)C1 | 0% | 12 | -3 | -4.4 | 3
CS(=O)(=O)N(CCc1ccccc1)CC(=O)Nc1ccccc1 | -5% | 5 | 12 | -2.2 | -27
CC(CO)(CO)NCc1ccc(-c2ccccc2)cc1 | 8% | 3 | 5 | -1.3 | -16
Clc1c(Cl)c(Cl)c2n[nH]nc2c1Cl | / | / | -6 | 2.7 | /
Cc1ccc(NC(=S)N(CCN(C)C)C(C)c2cccnc2)cc1 (stereo unspecified) | 0% | 4 | -6 | 5.6 | /
CS(=O)(=O)N(Cc1ccc(C(=O)NCc2ccco2)cc1)c1ccccc1 | -2% | 1 | -9 | -0.7 | -14 | Arbovirus anti repeat=4
O=C(Nc1nnc(S(=O)(=O)N2CCCC2)s1)c1ccccc1Cl | / | / | 9 | -0.9 | /
CC(C)COCC1CC2(CC(C)(c3csc(N)n3)OC2=O)C(=O)O1 (stereo unspecified) | 0% | 1 | / | -0.7 | -63
CCOC(=O)C1CCN(S(=O)(=O)c2cccc(-c3cn4cccnc4n3)c2)CC1 | -8% | 12 | -6 | -5.2 | 8
O=C(NCc1csc(-c2cccs2)n1)c1cccc(Cl)c1 | 1% | / | 0 | 3.1 | /
NCCCC[C@H]1CNC(=O)C(=O)N1CCc1cccc2ccccc12 | -4% | / | 7 | -4.7 | /
Cc1ccc(S(=O)(=O)c2nc(NCCCn3ccnc3)sc2Cl)cc1 | 5% | -9 | -11 | 4.0 | -41
COc1ccccc1CCC(=O)Nc1ccc(S(=O)(=O)Nc2nccs2)cc1 | / | / | 3 | 0.5 | /
CC(C)NC(=O)COc1ccc(OCc2ccccc2)cc1 | -2% | 13 | -1 | -1.5 | /
COc1cc(/C=N/NC(=O)CSc2n[nH]c(=O)[nH]c2=O)cc(OC)c1O | 1% | 6 | 2 | -3.7 | /
COC(=O)C1=C(C)NC2=C(C(=O)CCC2)C1c1ccc(-c2ccsc2C(=O)OC)o1 (stereo unspecified) | -15% | / | -7 | 9.4 | /
O=C(Cc1cc(=O)oc2cc(O)ccc12)NC(Cc1ccc(Cl)cc1)C(=O)O (stereo unspecified) | / | / | 39 | -242 | /
Cc1cccnc1NC(=O)c1ccc(NS(=O)(=O)/C=C/c2ccccc2)cc1 | / | / | 8 | -0.9 | /
O=C(CNc1ccc2c(c1)OCO2)N/N=C\c1cn(Cc2ccccc2)c2ccccc12 | 2% | -23 | 18 | -2.7 | -10
CCOC(=O)c1c(NC(=O)CSc2nccc(=O)[nH]2)sc(C)c1C | / | / | -9 | -4.6 | /
CCNc1nc(NCC)n2c(SCC(=O)Nc3ccc(F)cc3)nnc2n1 | / | / | -13 | 0.7 | /
Cc1cc(-c2ccccc2)n2nc(C)c(-c3ccccc3)c2n1 | -8% | -7 | -4 | 0.2 | 22
O=Cc1cccc(OC(=O)c2ccc(Cl)cc2Cl)c1 | 3% | -1 | 74 | 17 | 0
O=C(NCCCCc1ccccc1)C12CN(Cc3ccccc3)CC1C(c1ccc([N+](=O)[O-])cc1)=NO2 (stereo unspecified) | 2% | 5 | 0 | 2.0 | -34
COc1ccc(/C=C/C2=CCN(Cc3ccc(OC)cc3)CC2)cc1 | 4% | 13 | -11 | 2.0 | /
CCOc1ccccc1NS(=O)(=O)c1csc(C(N)=O)c1 | / | / | 0 | 1.6 | /
C/C(=N\NC(=O)c1cc(-c2ccncc2)nc2ccccc12)c1ccc(N2CCOCC2)cc1 | 3% | -4 | 3 | -1.9 | /
CC(C)N(C(=O)CS(=O)(=O)c1ccc(Cl)c(Cl)c1)C(C)C | 2% | 0 | -6 | 4.5 | /
CC(C)Cn1c(N)c(C(=O)COC(=O)c2cnccn2)c(=O)n(C)c1=O | / | / | 2 | -2.7 | /
COc1ccccc1CNC(=O)C1CC(c2ccccc2F)=NO1 (stereo unspecified) | -5% | / | -2 | 0.0 | /
Cc1ccccc1N1C(=O)C(Oc2ccc(Cl)cc2)C1CNCCCOC(C)C (stereo unspecified) | 14% | 11 | 10 | 2.9 | -33
COc1ccc(NS(=O)(=O)c2c(C)cc(C)cc2C)cc1 | -10% | -15 | -6 | 2.9 | -13
COc1ccc(C)cc1NC(=O)CSc1nnc(CC(=O)Nc2ccccc2C)n1C | 4% | 4 | -7 | 0.9 | -5
O=C(NCc1cccnc1)NC1CCCCC1 | -3% | 3 | 0 | -0.4 | -14

Six records picked at random from those above, as already listed:
SMILES | Mtb H37Rv | Arbovirus anti | Mtb betalactam | RecA intein inh | YopH PTP inh | others
COc1ccccc1CNC(=O)C1CC(c2ccccc2F)=NO1 (stereo unspecified) | -5% | / | -2 | 0.0 | /
COc1ccc(NS(=O)(=O)c2c(C)cc(C)cc2C)cc1 | -10% | -15 | -6 | 2.9 | -13
COc1cc(/C=N/NC(=O)CSc2n[nH]c(=O)[nH]c2=O)cc(OC)c1O | 1% | 6 | 2 | -3.7 | /
CCOC(=O)c1c(NC(=O)CSc2nccc(=O)[nH]2)sc(C)c1C | / | / | -9 | -4.6 | /
O=C(NCCCCc1ccccc1)C12CN(Cc3ccccc3)CC1C(c1ccc([N+](=O)[O-])cc1)=NO2 (stereo unspecified) | 2% | 5 | 0 | 2.0 | -34
C/C(=N\NC(=O)c1cc(-c2ccncc2)nc2ccccc12)c1ccc(N2CCOCC2)cc1 | 3% | -4 | 3 | -1.9 | /

The results go on.
SMILES | Mtb H37Rv | Arbovirus anti | Mtb betalactam | RecA intein inh | YopH PTP inh | others
CCOC(=O)C1CCN(S(=O)(=O)c2ccc3[nH]c4c(c3c2)CCCC4)CC1 | / | / | 4 | -0.8 | /
CCOc1ccc(N(CC(=O)Nc2ccc(C)cc2C)S(C)(=O)=O)cc1 | / | / | -15 | -4.8 | /
CCOC(=O)c1cnc2ccc(C(=O)OC)cc2c1NCCCN1CCOCC1 | / | / | 5 | -4.0 | /
O=C(CCN1C(=O)/C(=C/c2ccccc2)SC1=S)NNC(=O)c1ccncc1 | -17% | 8 | -7 | -0.7 | /
CCOC(=O)c1cnc(SC)nc1Sc1ccc(Cl)cc1Cl | 0% | 19 | -2 | 1.5 | -34
O=C(c1ccccc1C(=O)N1CCN(c2ccccc2F)CC1)N1CCN(c2ccccc2F)CC1 | -3% | 0 | -1 | -0.5 | -28 | Arbovirus anti repeat=-2
CCOc1ccc(NC(=O)C(c2ccccn2)N(C(=O)CCl)c2ccc(OCC)cc2)cc1 (stereo unspecified) | ? | -14 | -17 | / | 3
COc1ccc(CCNC(=O)CCSCc2ccccc2F)cc1OC | / | / | 2 | 2.0 | /
COc1cc(/C=N/NC(=O)c2cccc(NC(=O)c3ccccc3C)c2)ccc1O | / | / | -6 | -0.9 | /
COc1ccc(C2C(C(=O)N3CCN(c4ccccn4)CC3)CC(=O)N2c2ccc(OC)cc2)cc1 (stereo unspecified) | -7% | 24 | 9 | -1.0 | -11
COc1ccc(NC(=O)CSc2nc3ccccc3c(=O)n2CCCN2CCC(C)CC2)c(OC)c1 | 8% | -16 | 6 | 0.6 | /
COc1ccc(/C=C2/C(=O)NC(=O)N(Cc3ccco3)C2=O)cc1 | -8% | -5 | -4 | 7.7 | /
Cc1cccc(C(=O)c2c(N)sc3c2CCC(C)C3)c1 (stereo unspecified) | 5% | -4 | 2 | -0.3 | -6
O=C(N/N=C\c1cc(Cl)ccc1O)c1ccc(S(=O)(=O)N2CCCCC2)cc1 | 0% | -35 | -2 | -0.4 | -16
COc1ccc(-c2nc(SCc3ccc(C#N)cc3)[nH]c(=O)c2C#N)cc1 | / | / | 6 | -2.7 | /
CCOC(=O)N1CCN(C(=O)c2cccc(-n3c(=S)[nH]c4cc(Cl)ccc4c3=O)c2)CC1 | -8% | 16 | 20 | 2.7 | -36
CC(NS(=O)(=O)OCC(Cl)(Cl)Cl)c1ccc(C(C)(C)C)cc1 (stereo unspecified) | / | / | 47 | 10 | /
Cc1c(/C=C(\CC(=O)O)c2nc3ccccc3s2)cc(C#N)n1C | 1% | / | -5 | -2.6 | /
COc1ccc(NC(=O)Nc2cc(C)ccc2OC(F)F)c(OC)c1 | 0% | 4 | 7 | 0.7 | -4
COC(=O)C1=C(c2cc3ccccc3s2)C[C@@H]2CC[C@H]1N2C(=O)NCCS(C)=O (stereo partly specified) | -15% | / | -3 | -0.9 | /
CCC1=Nc2cc(C(=O)N3CCC4(CC3)OCCO4)ccc2Sc2ccc(C)cc21 | / | / | 4 | 4.9 | /
CCCC(C(=O)NC1CCCC1)N(Cc1cccs1)C(=O)c1snc(C(N)=O)c1N (stereo unspecified) | 5% | 2 | -8 | -2.9 | -20
COc1ccc(Cn2c(=O)sc3ccccc32)cc1 | 3% | -29 | 4 | 4.8 | -12
Cc1cc(=O)[nH]c(SCc2cccc(F)c2)n1 | -11% | -1 | 0 | -4.3 | -7
COc1ccccc1C(=O)n1nc(-c2ccccc2)nc1NCc1ccco1 | 5% | 0 | 1 | -4.7 | -15
COc1ccc(-c2cc(C)no2)cc1S(=O)(=O)N1CCN(C(=O)c2ccco2)CC1 | / | / | -10 | 2.3 | /
Cc1ccc(C)c(NC(=O)CN(C)C(=O)c2cc([N+](=O)[O-])ccc2N2CCOCC2)c1 | / | / | 2 | 0.6 | /
CC1CCCN(S(=O)(=O)c2ccc(C(=O)Nc3nnc(C4=COCCO4)o3)cc2)C1 (stereo unspecified) | / | / | ? | 0.1 | /

High-throughput results: PubChem, several laboratories

An excerpt (hit frequency here may not be typical).
